Bioassay records deposited in PubChem BioAssay by several laboratories.
T cruzi repl: blocks replication of Trypanosoma cruzi; T. cruzi beta-gal in NIH3T3, luminescence, 90 h; inhibition, % (no concentration beside the values); 300,000 tested, 1.4% active;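 active = mean inhibition across valid replicates above about 55%, limit read from the data; inconclusive = mean below that limit but half or more replicates reach it; inactive = mean below it, under half of replicates reach it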;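 also: signal also drops with host cell toxicity which is not excluded here; 0% = plate median of DMSO wells and 100% = zero luminescence signal; higher percent means less beta-gal luminescence so fewer parasites; stock transfer was 50 nL into about 50 µL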
Vif TR-FRET: inhibitors of Vif binding to APOBEC3G peptide, primary screen, biochemical, TR-FRET, GST-Vif 1-94, biotin-A3G peptide, dose response retest (AID 1117319); 260,000 tested, 0.57% active; TR-FRET GST-Vif / biotin-A3G peptide binding; higher % means a stronger effect; test concentration not given here; strong numbers were not always called active; inhibition, %; hits with a dose series show IC50 in µM;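 active = above the screen mean plus three standard deviations and confirmed in dose response; inconclusive = results disagree or hit not tested in dose response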;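 also: Vif residues 1-94 fused to GST binding biotinylated APOBEC3G peptide 110-148; 0% = full assay without inhibitor and 100% = GST in place of GST-Vif; retest series ran down from 100 µM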
RanGTP-Imp inh: inhibitors of RanGTP-importin-beta interaction, primary screen, biochemical, FRET, CFP-Ran, YFP-importin-beta, homogeneous; inhibition, % (test concentration not listed); AID 2216; 300,000 tested, 1.1% active; cell-free CFP-Ran/YFP-importin-beta FRET ratio;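 active = most replicates above 15%; inconclusive = exactly half above 15%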;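 also: 0% = DMSO wells and 100% = Ran loaded with GDP instead of GTP; wells of about 40 µL received 100 nL stock; the first replicate is given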
MLL AF4-AF9 inh: MLL-AF4/AF9 protein interaction inhibition | 350,000 tested, 0.47% active | AID 651704 | AlphaScreen, biotin-AF4 peptide binding to FLAG-AF9 | inhibition, % at 10 µM;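 active = every replicate reaching a set inhibition limit, whatever the replicate mean, cut at about 25% in these data; inconclusive = mean inhibition reaches that limit but some replicates miss it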;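 also: 0% = plate neutral control median and 100% = total signal loss; the record names both 10 and 1 µM as test concentration; the first replicate is given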
Target sequence (P42568 whole entry, looked up): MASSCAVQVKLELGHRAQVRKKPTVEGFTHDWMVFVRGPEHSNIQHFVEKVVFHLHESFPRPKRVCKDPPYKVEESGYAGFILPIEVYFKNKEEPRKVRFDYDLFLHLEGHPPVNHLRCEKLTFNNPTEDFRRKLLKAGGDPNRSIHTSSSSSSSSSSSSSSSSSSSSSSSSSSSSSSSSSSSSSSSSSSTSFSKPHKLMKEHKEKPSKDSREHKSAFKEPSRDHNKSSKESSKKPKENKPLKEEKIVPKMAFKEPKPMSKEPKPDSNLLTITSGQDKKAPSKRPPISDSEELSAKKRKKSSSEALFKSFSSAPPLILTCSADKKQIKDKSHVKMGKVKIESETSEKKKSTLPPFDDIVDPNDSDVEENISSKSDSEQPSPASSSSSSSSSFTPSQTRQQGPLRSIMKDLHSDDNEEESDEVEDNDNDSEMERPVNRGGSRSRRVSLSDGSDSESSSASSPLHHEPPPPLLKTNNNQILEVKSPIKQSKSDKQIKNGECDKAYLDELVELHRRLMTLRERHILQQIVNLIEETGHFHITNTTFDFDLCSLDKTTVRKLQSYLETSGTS
Beta cell apopt: blocks beta cell apoptosis. protection from apoptosis, % (no concentration beside the values). INS-1E cytokine-induced death, ATP luminescence, 48 h; percent of positive-control rescue, neutral wells zero. 300,000 tested, 0.8% active;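 active = all replicates at 75% or more, or half of them and the mean; inconclusive = half reach 75% but not the mean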;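 also: 0% = cytokine-treated negative control wells and 100% = positive control rescue; higher means more ATP so stronger rescue from cytokine killing; wells of about 40 µL received 100 nL stock; the first replicate is given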
Calb FLC: C. albicans growth modulation with fluconazole; C. albicans CaCi-2 (fluconazole-resistant clinical isolate) + fluconazole, Alamar Blue growth, 48 h; growth inhibition, % (test concentration not listed); 300,000 tested, 0.57% active; AID 1979;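 active = most replicates above 75%; inconclusive = exactly half above 75%; inactive = most below 75%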;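 also: all wells also contain fluconazole at 8 µg/ml as a sub-toxic cotreatment; 0% = median of DMSO wells and 100% = median of geldanamycin control wells; wells of about 8 µL received 7.5 nL stock; the first replicate is given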
Ecoli rRNA inh: inhibitors of bacterial rRNA selective over humanized ribosomes; E. coli WT GFP vs humanized-ribosome RFP mutants, fluorescence, 24 h; stronger effect = lower value; DMSO median 0, no signal -100; AID 720706; GFP signal change (wild-type ribosome), % (concentration not given with the values); 350,000 tested, 1.6% active;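 active = significant combined selectivity score with lowered wild-type GFP, culture density cut under 30%, mutant RFP and density less affected; inactive = any of these conditions unmet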; also: one replicate is shown; some compounds called inactive have numbers as strong as hits
Bfl-1 A1 inh: inhibitors of the anti-apoptotic protein A1, read as caspase activation; MEF A1-2A-BIM cells, Caspase-Glo 3/7 luminescence, 3 h; percent of clofoctol response, vehicle zero; caspase activation, % (no concentration beside the values); 330,000 tested, 0.066% active;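 active = over half of replicate activation scores above 10%, or exactly half above 10 with the replicate mean above 10; inconclusive = replicate mean below 10 yet half the replicates above 10; inactive = over half of replicates below 10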;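 also: wells of about 30 µL received 50 nL stock; many hits fall short of the cut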
Ecoli rRNA inh OD600: further read-out of Ecoli rRNA inh, marked with its call; OD600 change, %; measured here: OD600 growth;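 optical density of the mix in the first replicate; 0 = DMSO median and -100 = no signal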
Ecoli rRNA inh RFP: recorded beside Ecoli rRNA inh, whose call it bears; RFP signal change, %; measured here: RFP humanized mutant strains;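 first replicate; 0 = DMSO median and -100 = no signal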
An asterisk follows results filed as active; ? = inconclusive; / = not tested or not shown; & = joins results of further samples. Only part of the results is shown; the hit share may differ from the screen's.

SMILES	T cruzi repl	Vif TR-FRET	RanGTP-Imp inh	MLL AF4-AF9 inh	Beta cell apopt	Calb FLC	Ecoli rRNA inh	Ecoli rRNA inh OD600	Ecoli rRNA inh RFP	Bfl-1 A1 inh
CC(C)[C@@H](NC(=O)OC(C)(C)C)C(=O)NCC1CCC(C(=O)N[C@@H](Cc2ccccc2)C(=O)O)CC1 (stereo partly specified)	-29.2	-2.3%	-2.3	0.0	2.4	4.5	-1.8	-2.4	-2.0	0.6
CC1(OC(=O)CCc2ccccc2)C(=O)C=C2C=C(c3ccc(C#N)cc3)N(CCN3CCOCC3)C=C2C1=O (stereo unspecified)	8.3	/	-1.8	-1.1	-1.9	-7.5	18.8	5.9	0.1	0.0
CCOC(=O)C(C)n1cnc2scc(-c3ccc(C)c(C)c3)c2c1=O (stereo unspecified)	3.5	/	?	-1.3	2.6	-12.5	-23.6	-36.0	-1.7	-0.4
CC(C)c1ccc(Nc2nc(NCc3ccco3)nc(N3CCOCC3)n2)cc1	41.1	25.8%	-10.4	/	19.5	-5.5	/	/	/	0.2
c1ccc(Cn2nnc3c(N4CCCCCC4)ncnc32)cc1	14.7	4.0%	3.3	-2.5	4.8	-6.6	-21.8	-45.0	1.9	0.2
CCCCNC(=O)c1ccc(NC(C)=O)c(Cl)c1	-16.7	-1.2%	6.0	-2.6	-11.5	7.5	7.4	7.0	0.2	0.1
COC(=O)c1ccc(-c2cc(C(=O)O)c3cc4c(cc3n2)OCCO4)cc1	-3.9	-2.3%&-0.3%	3.5	/	3.1	2.7	/	/	/	0.5
Cc1cc(NC(=O)c2cnn3cccnc23)no1	-22.1	?	-8.8	3.2	-0.8	10.8	10.0	2.3	-0.5	-0.7
COc1ccc2nc(NC(=O)CN3CCN(C)CC3)sc2c1	-3.4	3.1%	4.3	/	-0.6	-2.5	/	/	/	-0.6
O=C(/C=C/c1ccc2c(c1)OCO2)NCCSCc1c(Cl)cccc1Cl	14.8	/	2.1	/	-0.8	-7.5	/	/	/	-0.8
CCOc1cc(/C=N/NC(=O)c2c(-c3ccccc3)noc2C)ccc1O	-31.7	-1.4%	2.7	-1.4	-4.8	20.7	4.4	-1.2	-1.3	-0.7
Cn1nc([N+](=O)[O-])nc1Oc1ccccc1	79.4*	-1.2%	3.6	/	/	-7.5	/	/	/	/
Cc1cccc(OCCC(=O)NCC(=O)Nc2c(C)cccc2C)c1	-18.1	/	-3.9	4.4	3.7	-4.4	/	/	/	0.4
CC(C)c1nc(Cl)c(C#N)c2c1CCCC2	-1.6	-3.1%	-1.8	-12.3	-7.7	-12.6	7.3	12.1	1.8	0.1
COc1ccc2c(c1OC)C(=O)OC2Nc1nc(-c2cccc([N+](=O)[O-])c2)cs1 (stereo unspecified)	0.8	/	?	/	-8.6	9.4	-10.9	-3.1	-2.2	-0.3
COc1ccccc1NC(=O)Cc1ccsc1	-0.1	/	-1.6	-1.7	/	-3.8	5.7	0.8	0.0	1.4
Cc1cccc(C(C)C)c1NC(=O)c1ccc(CN(c2ccccc2)S(=O)(=O)c2ccccc2)cc1	1.2	/	2.1	/	10.2	-3.7	/	/	/	-0.7
CCN(C(=O)COc1ccccc1C(=O)NCc1ccccc1)C1CCS(=O)(=O)C1 (stereo unspecified)	/	-4.0%	/	0.6	0.5	/	3.8	5.5	-1.6	0.5
Cc1ccsc1/C=N/Nc1nc(Cl)c(Cl)cc1Cl	13.6	-0.2%	0.6	/	3.5	7.1	/	/	/	-1.8
Cn1c(=O)c2cn(-c3cccc4ccccc34)cc2n(C)c1=O	-1.1	27.3%	-1.0	/	2.0	21.7	/	/	/	2.6
COc1cc(OC)cc(C(=O)NC(C(=O)NCCN(C)C)C23CC4CC(CC(C4)C2)C3)c1 (stereo unspecified)	3.1	-0.5%	3.3	/	-1.7	-16.9	/	/	/	0.7
CCc1ccc(NC(=O)/C(C#N)=C/c2cn(CC(=O)O)c3ccccc23)cc1	10.8	?	?	3.5	-3.9	3.6	-29.4	-30.0	-3.3	0.7
O=c1[nH]c2ccccc2nc1-c1cccs1	-7.9	20.6%	8.9	/	3.7	?	/	/	/	-1.8
Cc1ccc(SCC(=O)Nc2nnc(C(C)(C)C)s2)cc1	-6.0	/	-1.2	-6.5	4.2	2.8	7.6	3.7	0.7	0.3
CCc1noc(C)c1C(=O)OC(C)C(=O)NCc1ccc(OC)cc1 (stereo unspecified)	/	/	/	0.1	-4.5	/	3.4	9.3	-1.5	-1.1
CC(=O)NC(Cc1ccc(F)cc1)C(=O)NC1CCN(S(=O)(=O)c2ccccc2)CC1 (stereo unspecified)	3.7	/	0.1	-1.9	-0.6	7.3	3.7	3.6	-1.0	0.7
Cc1onc(-c2ccccc2)c1C(=O)NC(=S)NNC(=O)c1ccc(O)cc1O	-31.0	13.6%	-2.4	/	90.7*	-3.0	/	/	/	0.0
O=C1COc2ccc(S(=O)(=O)N3CCN(c4cccc(C(F)(F)F)c4)CC3)cc2N1	5.4	2.9%	1.5	-1.4	-1.0	15.4	2.0	-3.3	-0.2	0.1
Cc1ccc(S(=O)(=O)N2CCN(C)CC2)cc1C(=O)NC1CCCCC1	-6.2	/	-1.0	-1.3	/	0.4	0.4	0.9	2.5	1.0
CN(C(=S)NC(=O)c1ccc(Cl)cc1)C1CCCCC1	-30.1	/	1.5	1.4	4.8	0.7	-12.4	-14.0	0.7	0.6
Cc1nc(C)c(-c2nnc(-c3ccc(C(C)(C)C)cc3)o2)cc1C(=O)NN	-12.6	-3.3%	-9.2	/	2.2	?	/	/	/	0.3
Cc1cc(C)cc(OCC(=O)OC(C)C(=O)Nc2c(C)n(C)n(-c3ccccc3)c2=O)c1 (stereo unspecified)	-8.4	-5.0%	1.0	-1.4	-1.2	/	9.6	3.6	0.3	0.4
Cc1ccc(-n2cc(CN(C)CCc3cn[nH]c3)c(-c3cccc(C)c3)n2)cc1	29.1	0.9%	7.9	12.1	20.4	4.4	-12.8	-18.1	9.6	-0.3
Cc1ccc(N(CC(=O)N/N=C/c2cc(C)n(-c3ccccc3C)c2C)S(C)(=O)=O)cc1	8.2	13.9%	7.1	/	5.6	-0.4	/	/	/	2.8
O=C(NCc1ccc(F)cc1)c1cc2c(s1)CS(=O)(=O)C2	7.0	/	-1.1	-4.7	0.2	19.7	12.7	10.1	-0.9	0.6
O=C(Nn1c(-c2ccc(Cl)cc2)nc2ccccc2c1=O)c1cccnc1Cl	-6.2	/	4.2	-1.7	-0.5	-6.7	4.3	9.7	-0.2	0.4
Cc1ccc(NS(=O)(=O)c2ccc3c(c2)NC(=O)CCS3)c(Cl)c1	17.5	/	0.6	1.1	-6.6	11.1	-0.6	-9.7	-0.5	-0.1
O=C(NC1=NCCS1)c1ccc([N+](=O)[O-])cc1Cl	-10.3	10.0%	-1.9	-1.4	-6.6	-5.8	12.6	14.6	4.8	0.1
O=C(O)CN1C(=O)NC2NC(=O)NC21 (stereo unspecified)	-12.1	8.0%	0.4	-4.7	-3.5	-4.5	13.3	4.6	1.1	0.2
Cc1cccc(NC(=S)NCc2ccc3c(c2)OCO3)c1	-24.6	-4.0%	0.0	/	-3.4	-31.7	/	/	/	0.6
CCO[C@H]1OC(C(N)=O)=C[C@@H](C(C)(C)C)[C@@H]1CCCO	-19.7	/	3.6	2.5	6.4	-14.2	21.8	16.0	13.6	-1.2
COc1ccc2nc(SCC(=O)Nc3ccc4c(c3)CCC4)[nH]c2c1	-20.4	/	-0.7	/	-0.2	10.4	/	/	/	0.1
O=C(CCC1CCCC1)NCCCN1CCOCC1	0.0	1.3%	2.3	/	-13.0	-5.9	/	/	/	0.3
Cc1cc2nc(SCC(=O)Nc3ccccc3C(=O)O)[nH]c2cc1C	-6.0	/	5.7	-4.7	-2.6	-1.9	-11.8	10.7	-1.4	0.3
O=C(Nc1ccc2c(c1)OCCO2)c1ccc(Cl)cc1	-7.5	-4.0%	0.7	1.3	1.7	-23.2	3.3	12.0	-0.8	-11.0

2 entries from above, with each value named.
Cc1cc2nc(SCC(=O)Nc3ccccc3C(=O)O)[nH]c2cc1C
- T cruzi repl = -6.0
- Vif TR-FRET = /
- RanGTP-Imp inh = 5.7
- MLL AF4-AF9 inh = -4.7
- Beta cell apopt = -2.6
- Calb FLC = -1.9
- Ecoli rRNA inh = -11.8
- Ecoli rRNA inh OD600 = 10.7
- Ecoli rRNA inh RFP = -1.4
- Bfl-1 A1 inh = 0.3
O=C(Nc1ccc2c(c1)OCCO2)c1ccc(Cl)cc1
- T cruzi repl = -7.5
- Vif TR-FRET = -4.0%
- RanGTP-Imp inh = 0.7
- MLL AF4-AF9 inh = 1.3
- Beta cell apopt = 1.7
- Calb FLC = -23.2
- Ecoli rRNA inh = 3.3
- Ecoli rRNA inh OD600 = 12.0
- Ecoli rRNA inh RFP = -0.8
- Bfl-1 A1 inh = -11.0

(continued)
SMILES	T cruzi repl	Vif TR-FRET	RanGTP-Imp inh	MLL AF4-AF9 inh	Beta cell apopt	Calb FLC	Ecoli rRNA inh	Ecoli rRNA inh OD600	Ecoli rRNA inh RFP	Bfl-1 A1 inh
CN(C)c1ccc(/C=C2\SC(=S)N(Nc3ncc(C(F)(F)F)cc3Cl)C2=O)cc1	-7.3	1.6%	-232.3	/	-9.3	-14.2	/	/	/	-0.2
CC(C)N(C(=O)CN1C(=O)C(=O)c2ccccc21)c1ccccc1	-6.0	9.8%	4.1	-3.6	-8.5	4.0	3.5	1.6	-7.8	-0.1
CN(C(=O)COC(=O)C1CCN(S(=O)(=O)c2cccs2)CC1)C1CCS(=O)(=O)C1 (stereo unspecified)	0.0	1.1%	?	/	-1.7	19.4	/	/	/	0.5
O=C(Cc1csc(Nc2nc(=S)[nH]c3ccccc23)n1)NCCCN1CCN(c2cccc(Cl)c2)CC1	10.6	-30.0%	0.7	5.3	21.7	1.0	-1.2	7.2	41.4	0.5
Cc1noc(C)c1Cc1c(Cl)cccc1Cl	-7.8	-0.8%	4.4	/	-11.1	7.9	/	/	/	0.5
CC1CCN(C(=O)c2ccc(-c3ccccc3Cl)o2)CC1	14.9	4.5%	-2.7	7.0	-7.4	-2.1	-55.7	-79.8	-16.1	-0.6
Cc1noc(C)c1NC(=O)N(C)C[C@H]1Oc2c(NC(=O)NC(C)C)cccc2C(=O)N([C@H](C)CO)C[C@@H]1C	/	/	/	-1.2&-1.8	-4.6	/	3.4&0.8	16.1&5.5	-0.9&-6.4	0.3
O=C(Nc1cc(Oc2ccc(Cl)cc2)cc([N+](=O)[O-])c1)c1ccco1	34.1	10.9%	-0.5	/	4.2	25.5	/	/	/	0.1
O=C1/C(=C/c2coc3ccc(O)cc3c2=O)SC(=S)N1c1ccccc1	-7.7	-1.4%	1.5	-4.7	-0.8	7.8	8.2	2.4	5.4	-0.4
